TRPML1 blocker: qHTS for Inhibitors of the Human Mucolipin Transient Receptor Potential 1 (TRPML1); 390,000 tested, 0.02% active; Mucolipin-1 (Homo sapiens), Q9GZU1; TRPML1-inducible cells, Ca2+ dye fluorescence, FDSS; hits give low values; inhibition of EC80 agonist-evoked calcium signal; activity change, negative = inhibition, % (test concentration not listed); in the data active means activity change below about -50%; inconclusive means about -30% to -50%; inactive means above about -30%;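 note: stimulus is agonist 54-4 at its EC80 concentration; % is set by controls: 0 for no effect and ±100 for the full control effect; compound concentration not given in the record; the text of the record puts the active cut at -80%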
Target sequence (Q9GZU1 whole entry, looked up): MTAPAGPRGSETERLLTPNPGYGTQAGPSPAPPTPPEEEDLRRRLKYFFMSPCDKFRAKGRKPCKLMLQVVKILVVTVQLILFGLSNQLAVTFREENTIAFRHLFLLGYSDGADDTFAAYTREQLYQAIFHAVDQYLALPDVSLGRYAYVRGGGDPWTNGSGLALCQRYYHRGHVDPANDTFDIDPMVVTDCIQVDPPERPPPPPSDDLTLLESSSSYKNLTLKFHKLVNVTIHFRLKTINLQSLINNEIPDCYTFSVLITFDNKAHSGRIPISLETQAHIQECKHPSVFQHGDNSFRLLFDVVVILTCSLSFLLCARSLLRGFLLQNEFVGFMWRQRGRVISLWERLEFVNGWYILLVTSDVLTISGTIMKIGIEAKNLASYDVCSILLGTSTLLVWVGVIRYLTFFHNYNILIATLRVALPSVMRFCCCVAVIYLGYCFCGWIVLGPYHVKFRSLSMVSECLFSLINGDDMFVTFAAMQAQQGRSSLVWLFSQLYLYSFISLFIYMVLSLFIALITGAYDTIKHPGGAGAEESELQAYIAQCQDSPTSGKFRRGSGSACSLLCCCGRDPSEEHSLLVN
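Calcium fluorescence in TRPML1-DL cells induced overnight with Tet: a 110 s read after compound pin addition, then a 110 s antagonist read after challenge with 54-4 at 4 uM final (EC80).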
PINK1 expr mod: A Quantitative High throughput Screen to Identify Chemical Modulators of PINK1 Expression; PINK1 immunofluorescence, high-content cytometry, 24 h; Potency, µM (doses to about 76.6 µM), inactives show at the highest dose activation (PINK1 increase), usual class: activators; 410,000 tested, 0.2% active; active = well fitted activation curve with a large enough effect; inconclusive = small, poorly fitted or top-dose-only effect; inactive = flat fitted curve, though single readings scatter; cell line not stated here;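 note: potency is the fitted concentration of half-maximal effect; % of control where 0% means no effect; nearly all actives have a fitted effect of over 65% in size; a mitochondrial uncoupler was the plate control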
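Stable cell line treated 24 h with compounds at 5 concentrations (CCCP controls), then fixed and immunostained for PINK1 plus nuclear and cell stains; PINK1 immunofluorescence quantified by laser-scanning microplate cytometry.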
D2 agonist: Beta-Arrestin HTS for Positive Allosteric Modulators of the Human D2 Dopamine Receptor: Agonists. 360,000 tested, 0.084% active. activation, % (concentration not given with the values). DiscoveRx PathHunter D2 beta-arrestin, luminescence, 90 min; 100% = 57 uM dopamine signal. D(2) dopamine receptor (Homo sapiens), P14416; in the data active = activation above about 40%; inconclusive = about 15% to 40%; inactive = below about 15%; note: compound concentration not given in the record; the text of the record calls up to 30% inactive
Target sequence (P14416 whole entry, looked up): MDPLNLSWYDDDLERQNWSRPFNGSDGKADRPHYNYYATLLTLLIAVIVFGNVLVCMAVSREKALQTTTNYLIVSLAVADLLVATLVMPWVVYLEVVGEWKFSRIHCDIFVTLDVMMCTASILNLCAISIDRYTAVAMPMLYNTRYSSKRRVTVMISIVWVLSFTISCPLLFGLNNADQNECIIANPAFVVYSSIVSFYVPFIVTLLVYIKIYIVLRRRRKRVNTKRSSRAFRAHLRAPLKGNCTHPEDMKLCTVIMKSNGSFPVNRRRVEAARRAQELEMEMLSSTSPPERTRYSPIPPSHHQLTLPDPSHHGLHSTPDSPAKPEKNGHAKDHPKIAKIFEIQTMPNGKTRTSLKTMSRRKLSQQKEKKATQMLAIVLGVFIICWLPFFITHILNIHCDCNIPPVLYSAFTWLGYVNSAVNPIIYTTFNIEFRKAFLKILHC
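DiscoveRx PathHunter D2 beta-arrestin cells (2,100/well) attached overnight, then compound-stimulated 90 min at 37 C in HBSS/10 mM HEPES/0.1% Tween-20 buffer; beta-galactosidase complementation read by luminescence after 1 h at ambient temperature. Dopamine 57 uM final (EC100) as control.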
Six1-Eya2 inh: qHTS Assay for Inhibitors of the Six1/Eya2 Interaction. activity change, % (concentration not given with the values). AlphaScreen GST-Six1/His-Eya2 binding, biochemical; hits give low values; control for the full effect not named in the record. Homeobox protein SIX1 (Homo sapiens) + Protein phosphatase EYA2 (Homo sapiens), …. AID 651725, 2012. 360,000 tested, 0.56% active; in the data active = activity change below about -65%; inconclusive = about -30% to -65%; inactive = above about -30%; note: % is set by controls: 0 for no effect and ±100 for the full control effect
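GST-Six1 + His-Eya2 (5X stock: 250/500 nM); Tris pH 8.0, 300 mM NaCl, 0.05% BSA, 0.02% Tween 20; GSH donor/Ni acceptor beads; 1 h 37 °C dark; AlphaScreen readout.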
TRPML1 ag: qHTS for Agonists of the Human Mucolipin Transient Receptor Potential 1 (TRPML1); activation, % (no concentration beside the values); 410,000 tested, 0.12% active; TRPML1-expressing cells, Ca2+ dye fluorescence, FDSS; host cell line not named in the record; reference of the full effect not given here; AID 624414, 2012; in the data active = activation above about 50%; inconclusive = about 30% to 50%; inactive = below about 30%; note: 0% is about no effect; the text of the record puts the active cut at 80%
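Calcium fluorescence on an FDSS kinetic reader gave the read-out. Tet-induced TRPML1-DL cells were plated overnight, dye-loaded (Ca8 with quencher, 45-90 min, room temperature, dark), then read 110 s after compound addition, and again 110 s after 4uM final 54-4 (EC80).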
D2 PAM: Beta-Arrestin HTS for Positive Allosteric Modulators of the Human D2 Dopamine Receptor: Potentiators; D(2) dopamine receptor (Homo sapiens), P14416; potentiation, % (concentration not given with the values); DiscoveRx D2 beta-arrestin cells, luminescence, 90 min; 100% = 57 uM dopamine signal; 360,000 tested, 0.23% active; AID 624464, 2012; active = potentiation of 50% or more; inconclusive = 30% to 50%; inactive = 30% or less;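 note: compound concentration not given in the record; tested on top of an EC20 dose of dopamine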
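PathHunter beta-arrestin assay in DiscoveRx D2 cells. Compounds were added with an EC20 of dopamine (50 nM final) for 90 min at 37 deg C. Luminescence was read 1 h after detection reagent, with 57 uM dopamine as the EC100 control.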
Numbers without * were called inactive; ? = inconclusive; . = not tested or not shown; & = joins results of further samples; [ ] = dose if it differs, or a comment.

SMILES	TRPML1 blocker	PINK1 expr mod	D2 agonist	Six1-Eya2 inh	TRPML1 ag	D2 PAM
Cc1ccc(NC(=O)CCN2CC(C)OC(C)C2)cc1C (configuration not stated)	-18.6	14.3%	-3.5	0.0	0.9	-3.2
Cc1cccc(N2CCN(C(=O)CCN3C(=O)C4C5C=CC(C5)C4C3=O)CC2C)c1 (configuration not stated)	34.2	4.4%	0.9	4.8	0.4	-5.6
CCOc1ccc(S(=O)(=O)N2CCC(C(=O)NCc3ccccc3CN3CCCC3)CC2)cc1	4.6	-2.1%	-1.7	3.2	0.1	-2.2
CC(=O)Nc1ccc(NC(=O)COC(=O)c2cc([N+](=O)[O-])ccc2N2CCOCC2)cc1	4.7	6.4%	-1.4	2.5	-0.2	-13.1
Cc1c(Cl)cccc1NC(=O)NCCCN1CCCC1=O	6.4	0.1%	-4.5	3.6	1.0	-16.1
CCN(CC(=O)Nc1c(F)cccc1F)C(=O)c1cc(S(=O)(=O)N(C)C)ccc1N1CCCC1	-4.5	-2.5%	-3.8	1.4	-0.6	-11.5
COc1ccc(S(=O)(=O)N2CCOCC2)cc1C(C)C	-14.2	?	0.4	2.5	1.1	1.7
Cc1ccc(-c2c3c(nc4sc(C(N)=O)c(N)c24)CCC3)cc1	2.0	-0.9%	-3.8	-14.6	2.4	-16.5
Oc1ccc(C[C@H]2CN([C@@H](Cc3ccccc3)CN3CCCC3CN3C(=S)NC[C@@H]3Cc3ccccc3)C(=S)N2CC2CCCCC2)cc1 (some centres not stated)	.	9.0%	.	-11.5	0.7	.
O=C(O)CCCCCNC(=O)C(=O)C1C(=O)Nc2ccccc21 (configuration not stated)	.	0.8%	-6.9	3.6	.	-4.1
COc1ccccc1N1CCN(C(=O)C2CCN(C(=O)c3ccccc3Cl)CC2)CC1	1.0	0.6%	-0.8	5.4	0.0	9.8
O=S1(=O)c2ccccc2OC(COCc2ccccc2)CN1Cc1ccccc1 (configuration not stated)	43.3	2.3%	-2.6	17.2	-0.8	-5.2
COc1cc(C)c(S(=O)(=O)n2c([N+](=O)[O-])cnc2C)cc1C	5.5	1.1%	-3.3	3.9	0.1	-2.4
CCN(CCNC(=O)C1CCN(c2nnc(-n3cccc3)s2)CC1)c1ccccc1	2.9	3.2%	-6.2	-13.2	-0.6	-4.2
N#CC[C@H](Cc1ccccc1)N1CC[C@@H](NC(=O)OCc2ccccc2)CCC1=O	22.5	-0.3%	-1.4	2.3	-0.2&-0.4	-10.5
CCCCCCc1cc2cc(/C(N)=N/NC(=O)c3ccncc3)c(=O)oc2cc1O	-1.3	?	3.2	-8.2	?	-6.5
CC1(C)CC(=O)C(C(C2=C(O)CC(C)(C)CC2=O)c2cccc(O)c2)C(=O)C1 (configuration not stated)	5.1	13.1%[38.3 µM]	-2.3	-0.1	-0.8	-15.1
O=C(COC(=O)c1ccc(Cl)cc1O)NCCN1C(=O)CSC1=O	-7.9	1.1%	-2.4	-0.4	-0.4	-7.1
CCN(CC)c1ccc(/C=N/NC(=O)OC(C)(C)C)cc1	14.8	4.4%	-3.0	-3.0	3.4	-1.7
O=C(CSc1ccc2nnc(CCNC(=O)c3ccccc3)n2n1)NCc1ccco1	22.2	3.7%	-2.2	-0.3	-0.5	0.3
Cc1cccc(OCC(=O)NCc2ccncc2)c1C	3.8	-1.3%	-5.1	-0.7	-1.3	-9.3
COc1ccc(C(C)=O)cc1CN1C(=O)NC2(CCCC2)C1=O	-1.4	0.2%	0.3	-1.0	-0.5	-2.9
COc1ccc(Cn2c(CCC(=O)NCc3ccco3)nc3cccnc32)cc1	5.2	2.4%[38.3 µM]	-2.0	-1.7	-0.2	-13.5
COc1cc2c(=O)n(Cc3ccco3)c(=O)n(CC(=O)Nc3ccc(F)cc3)c2cc1OC	4.5	-0.5%	.	.	7.6	.
Cc1onc(-c2c(F)cccc2Cl)c1C(=O)O/N=C(\N)c1ccc([N+](=O)[O-])o1	3.1	-1.3%	14.6	-10.1	0.2	?

Taken from above:
COc1ccccc1N1CCN(C(=O)C2CCN(C(=O)c3ccccc3Cl)CC2)CC1 in D2 agonist: -0.8
Cc1onc(-c2c(F)cccc2Cl)c1C(=O)O/N=C(\N)c1ccc([N+](=O)[O-])o1 in PINK1 expr mod: -1.3%
COc1cc2c(=O)n(Cc3ccco3)c(=O)n(CC(=O)Nc3ccc(F)cc3)c2cc1OC in TRPML1 blocker: 4.5

Remaining list, next part.
SMILES	TRPML1 blocker	PINK1 expr mod	D2 agonist	Six1-Eya2 inh	TRPML1 ag	D2 PAM
CC(=O)NCCOc1c(C)cc(S(N)(=O)=O)cc1C	-10.4	-0.3%	-3.2	8.2	1.4	12.2
COCCNc1nc(C)cc(-c2cc(-c3ccc(Cl)cc3)on2)n1	-9.2	1.8%	0.8	0.6	-0.1	-4.7
N#CCc1ccc(NC(=O)c2ccccc2C(=O)Nc2ccc(CC#N)cc2)cc1	7.5	4.4%	3.0	1.7	4.6	-5.7
CCCOc1ccc(F)cc1-c1cc(C(=O)Nc2cc(OC)ccc2OC)[nH]n1	.	9.5%	-3.3	-3.7	-0.3	-8.6
Cc1ccc(S(=O)(=O)NCCC(=O)N2CCOCC2)cc1C	11.8	1.1%	6.5	-1.2	0.8	25.2
CCOC(=O)Cc1csc(N/N=C\c2ccccc2OC)n1	-1.6	5.5%	?	-8.6	-1.3	1.9
CC(=O)NNC(=O)CSc1nnc(-c2ccccc2)c(-c2ccccc2)n1	.	-0.3%	9.5	-13.8	.	-6.5
CCCCC[C@H](C)N1C[C@H](COCc2ccccc2)Oc2cc(N3CCC[C@H]3COC)ccc2S1(=O)=O	.	0.4%	.	-2.5	-0.3	.
O=C(c1ccccc1)N1CCCC(C(=O)N2CCCCC2)C1 (configuration not stated)	16.7	2.8%	2.3	6.4	-0.7	0.9
COc1ccc(-n2ccnc(NCc3ccccc3Cl)c2=O)cc1OC	-8.1	3.3%	.	.	-1.0	.
CCCCOc1ccc(-c2cc(C(=O)NNC(=S)NCC)c3ccccc3n2)cc1	26.5	2.3%[38.3 µM]	-11.9	-14.0	2.1	-33.9
Cc1nnc(SCC(=O)NCc2ccccc2F)c2nn(-c3ccc(Cl)cc3)c(C)c12	14.7	2.6%	.	.	3.8	.
S=c1[nH]ncc2ccccc12	8.0	0.0%[38.3 µM]	-1.0	-3.1	1.8	-12.7
O=C(COC(=O)/C=C/c1cccc(F)c1)Nc1ccc2[nH]c(=O)[nH]c2c1	25.6	-0.5%	0.5	0.4	-0.3	11.1
COc1ccc(CNC(=O)Cc2c(C)c3c(O)cc(C)cc3oc2=O)cc1	-2.2	-0.2%	.	.	-1.0	.
CCOC(=O)[C@]12CCC=C1N(Cc1cccc3ccccc13)C(=O)[C@H](CC(=O)N1CCN(C(=O)c3ccco3)CC1)C2	.	-1.0%	.	-2.8	-0.7	.
COc1ccc(-c2cc(-c3ccc4c(c3)NC(=O)CO4)nc3c2COc2ccc(C)cc2-3)cc1	1.4	0.2%	.	.	-0.2	.
COC(=O)c1cc2sc(C)cc2n1Cc1cccc(OC)c1	-10.7	2.9%	.	.	3.3	.
Cc1ccc(/C=C2/NC(=O)N(Cc3ccc(Br)cc3)C2=O)o1	-5.9	6.1%	-1.0	-3.7	-0.3	-18.3
COc1ccccc1Nc1c([N+](=O)[O-])cncc1[N+](=O)[O-]	0.3	0.1%	13.0	-17.6	0.1	8.3
O=c1c2cc(F)ccc2[nH]c(=S)n1CCCN1CCOCC1	-11.9	-1.8%[38.3 µM]	-1.7	3.2	-0.3	-10.4
O=C(NCC1CCCO1)c1ccc(COc2ccc(Cl)cc2)cc1 (configuration not stated)	-10.7	0.3%	2.7	6.7	1.4	-12.5
CCN1C(=O)c2ccccc2S(=O)(=O)c2ccc(C(=O)NCc3ccc(OC)cc3)cc21	-11.7	0.4%	.	.	-0.9	.
Oc1c(I)cc(Cl)c2cccnc12	-3.7&9.5	5.1%&-1.6%	-17.0	-95.3*	-0.5&2.4	-22.7
CCOC(=O)c1[nH]c(C)c(C(=O)OCC(=O)NCc2ccc(Cl)cc2)c1C	19.9	2.1%	2.0	7.9	-1.4	8.8

New compounds follow:
SMILES	TRPML1 blocker	PINK1 expr mod	D2 agonist	Six1-Eya2 inh	TRPML1 ag	D2 PAM
Cc1ccc(C)c(NC(=O)CSc2nnc(CCCCCNC(=O)OC(C)(C)C)o2)c1	-16.8	3.1%	3.9	4.2	0.3	10.2
CCCCn1nnc(NC(=O)c2ccc(-c3cccc(Cl)c3)o2)n1	25.7	6.8%[38.3 µM]	-0.8	-16.5	2.8	-17.2
Cc1cc(N2CCN(c3ccccc3)CC2)n2nnnc2n1	-10.2	-0.6%	-0.6	-10.7	-1.6	3.1
CC(NC(=O)c1ccccc1N)c1ccccc1 (configuration not stated)	6.1	4.1%	-1.1	-1.2	0.3	22.0
CCCC(=O)Nc1nc2c(s1)CC(C(C)(C)C)CC2 (configuration not stated)	6.7	5.8%	.	.	0.2	.
O=c1oc(-c2ccccc2Br)nc2ccccc12	9.6	3.3%	3.1	-4.5	-0.1	6.7
CCOCCn1[nH]c2ccccc2c1=O	-5.8	-0.2%	2.9	6.2	-0.1	6.1
CCCCC(=O)N=c1sc2c(OC)ccc(OC)c2n1C	.	6.4%	-1.4	4.4	.	-3.0
Cc1nc2ccn(Cc3ccccc3)c(=O)c2cc1C(=O)N1CCN(c2ccccc2)CC1	-11.6	-0.5%	1.7	5.4	-0.5	-1.1
Nc1cc(=O)nc(SCC(=O)Nc2ccc(F)cc2)n1CCc1ccccc1	-4.0	1.7%	.	.	-0.8	.
CC(OC(=O)C1CCC1)C(=O)Nc1cc(Cl)cc(Cl)c1 (configuration not stated)	-9.6	4.2%	-2.0	14.1	2.8	-41.3
COC(=O)Cc1c(C)nc2nc(-c3ccccc3)[nH]n2c1=O	7.9	2.7%	-2.9	-2.2	-0.8	-12.5
CCc1ccc2occ(CC(=O)Nc3ccccc3C(F)(F)F)c2c1	0.2	?	.	.	2.0	.
Cc1noc(C)c1CN1C(=O)c2ccc([N+](=O)[O-])cc2C1=O	42.9	0.2%	13.1	-1.4	-0.1	?
COc1ccc(C(=O)OCC(=O)NCCCc2ccccc2)c(OC)c1	-7.3	-1.4%	-0.9	1.5	-0.9	-9.5
CC(C)CC(N)c1csc(NC(=O)Nc2ccccc2Cc2ccccc2)n1 (configuration not stated)	.	-1.2%	1.8	-11.6	0.1	-2.0
CC(C)OCCCNC(=O)C1CCC(=O)N1C1CCCC1 (configuration not stated)	19.5	3.1%[38.3 µM]	-1.4	1.7	3.6	-7.4
COc1ccc([N+](=O)[O-])cc1NC(=O)C(C)Sc1nc(C)c(C)c(C)n1 (configuration not stated)	13.2	0.8%	1.1	-19.7	0.8	-7.2

No enrichment for hits; any-hit rate near 1%.
